Assay outcomes as filed in PubChem.
Menin MLL FP FL: qHTS Assay for Inhibitors Targeting the Menin-MLL Interaction in MLL Related Leukemias: Competition With Fluorescein Labeled MLL-derived Peptide; Fluorescence polarization, fluorescein-MLL peptide displacement from menin; 290,000 tested, under 10 active; FP activity change, % at 61.4 µM; AID 1766, 2009; inconclusive = falling polarisation curve, or a change in total fluorescence; inactive = total fluorescence flat and polarisation flat or rising; no compound was filed as active; the % refers to the polarisation; negative = inhibition;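 further: % of control where 0% means no effect; inhibitors lower the polarisation; unlabelled MLL peptide was the positive control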
Sfp PPTase inh: qHTS Assay for Inhibitors of Bacillus subtilis Sfp phosphopantetheinyl transferase (PPTase). 4'-phosphopantetheinyl transferase ffp (Bacillus subtilis), Q9F4F7. hit rate 3.5% among 310,000. Biochemical Sfp PPTase activity, qHTS. AID 1490, 2009. Potency, µM, inactives show max response, negative = inhibition, actives largely listed as inhibitors; active means well fitted inhibition curve with a large enough effect; inconclusive means small, poorly fitted or top-dose-only effect, or another doubt; inactive means no such curve, though single readings can be large or run the other way;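 further: the enzyme is Sfp with the accession as filed and its product quenches rhodamine fluorescence; potency means the concentration at half of the fitted maximal effect; 0% = enzyme reaction without inhibitor and -100% = no enzyme wells; top concentration of the series not given in the record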
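Sfp 15 nM + cpd, 15 min RT; start w/ rhodamine-CoA 5 uM, BHQ-2-YbbR 12.5 uM (final); 50 mM Hepes pH 7.6, 10 mM MgCl2, 0.01% NP-40, 0.01% BSA; read 525/598 nm at 0 and 30 min.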
ClpP mod: qHTS Assay for Activators of ClpP; ATP-dependent Clp protease proteolytic subunit (Bacillus subtilis (strain 168)), P80244; purified B. subtilis ClpP, FRET peptide cleavage, 20 min; Potency, µM (highest dose often 57.5 µM), for inactives: top-dose activity change, negative = active; hit rate 1.9% among 340,000; active = well fitted falling curve with a large enough effect; inconclusive = small, poorly fitted or top-dose-only effect; inactive = no such curve, though single readings can be large or run the other way; further: potency means the concentration at half of the fitted maximal effect; the source files actives as falling curves though it sought activators and does not explain the sign; nearly all actives have a fitted effect of over 65% in size; many hits overshoot -100%
Target sequence (P80244 whole entry, looked up): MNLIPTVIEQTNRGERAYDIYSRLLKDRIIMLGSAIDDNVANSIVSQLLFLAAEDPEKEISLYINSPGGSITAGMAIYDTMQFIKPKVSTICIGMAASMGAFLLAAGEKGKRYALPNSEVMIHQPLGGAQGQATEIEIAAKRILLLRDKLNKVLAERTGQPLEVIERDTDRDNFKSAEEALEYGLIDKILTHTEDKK
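Buffer: 100 mM Tris/HCl pH8, 100 mM KCl, 0.05% low protease BSA, 2.5% glycerol, 0.01% Tween-20. ClpP 10 microg/mL final; 20 min RT; delta FRET normalized to ADEP and DMSO controls.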
D2 PAM: Beta-Arrestin HTS for Positive Allosteric Modulators of the Human D2 Dopamine Receptor: Potentiators. DiscoveRx D2 beta-arrestin cells, luminescence, 90 min; 100% = 57 uM dopamine signal. hit rate 0.23% among 360,000. AID 624464, 2012. D(2) dopamine receptor (Homo sapiens), P14416. potentiation, % (concentration not given with the values); active = potentiation of 50% or more; inconclusive = 30% to 50%; inactive = 30% or less;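 further: compound concentration not given in the record; tested on top of an EC20 dose of dopamine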
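PathHunter D2 cells, attached overnight at 37 deg C, received compound in DMSO plus dopamine at EC20 (50 nM final) for 90 min at 37 deg C. Beta-arrestin recruitment was read as luminescence after 1 h with detection reagent at ambient temperature.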
TRPV1 PAM: HTS Assay for Compounds that Act as Potentiators of the Vanilloid Receptor 1; TRPV1-expressing cells, Fluo-8 calcium influx, capsaicin EC20 potentiation; host cell line not named in the record; control for the full effect not named in the record; potentiation, % at 8.33 µM; hit rate 0.02% among 320,000; active means potentiation above 80%; inconclusive means 30% to 80%; inactive means below 30%; further: 0% is about no effect
Target sequence (Q8NER1 whole entry, looked up): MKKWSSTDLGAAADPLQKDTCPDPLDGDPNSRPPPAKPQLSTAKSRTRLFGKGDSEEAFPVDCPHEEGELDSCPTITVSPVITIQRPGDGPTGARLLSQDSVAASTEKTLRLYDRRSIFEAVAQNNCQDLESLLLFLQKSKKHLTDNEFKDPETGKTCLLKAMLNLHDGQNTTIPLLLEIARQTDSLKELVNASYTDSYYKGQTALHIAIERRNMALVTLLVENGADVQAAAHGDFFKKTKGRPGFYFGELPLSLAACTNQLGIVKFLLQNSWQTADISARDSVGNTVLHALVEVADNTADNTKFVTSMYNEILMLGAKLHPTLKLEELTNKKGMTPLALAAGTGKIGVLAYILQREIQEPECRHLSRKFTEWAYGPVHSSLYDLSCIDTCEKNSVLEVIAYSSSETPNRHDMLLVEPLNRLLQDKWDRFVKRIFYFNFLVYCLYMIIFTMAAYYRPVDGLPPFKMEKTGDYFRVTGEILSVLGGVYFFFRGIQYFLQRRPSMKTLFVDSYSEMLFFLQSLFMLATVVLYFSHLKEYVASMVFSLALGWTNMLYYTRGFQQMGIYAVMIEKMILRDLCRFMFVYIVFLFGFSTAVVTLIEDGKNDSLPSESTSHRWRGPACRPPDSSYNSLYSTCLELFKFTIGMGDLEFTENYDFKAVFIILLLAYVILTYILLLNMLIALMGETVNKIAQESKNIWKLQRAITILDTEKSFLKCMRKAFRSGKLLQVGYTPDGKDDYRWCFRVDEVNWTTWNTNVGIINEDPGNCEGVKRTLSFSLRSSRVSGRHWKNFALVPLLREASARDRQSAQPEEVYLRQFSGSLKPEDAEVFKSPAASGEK
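TRPV1-expressing cells were cultured overnight at 35.5C and loaded with Fluo-8 calcium dye for 40 to 90 min at room temperature. After a 10 s baseline, compound was added and calcium influx was read kinetically for 3 min (ex 480/em 520 nm).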
gsp antag: qHTS for Antagonists of gsp, the Etiologic Mutation Responsible for Fibrous Dysplasia/McCune-Albright Syndrome: qHTS | gsp-mutant cells, cAMP HTRF, 30 min; control for the full effect not named in the record | Potency, µM (highest dose often 76.9 µM), without a hit: at the highest dose activity change, negative = inhibition, usual class: inhibitors | hit rate 0.4% among 340,000 | AID 624288, 2012; active = falling curve of any shape with a large fitted effect; inconclusive = falling curve, mostly with a smaller effect; inactive = flat or rising curve; cell line not stated here;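 further: intracellular cAMP measured with PDE inhibitor Ro 20-1724 present during compound exposure; potency means the concentration at half of the fitted maximal effect; on the % scale 0 is the no-effect control and ±100 the full control effect; nearly all actives have a fitted effect of over 65% in size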
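Cells, 2000/well, grown 16–24 h in DMEM 10% FBS with 0.5 mg/ml G418, then compounds plus […] (300 uM addition stock), 30 min at 37C. cAMP read by HTRF (cAMP-d2 and anti-cAMP antibody-K in lysis buffer) after 30 min RT.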
gsp ag: qHTS for Agonist of gsp, the Etiologic Mutation Responsible for Fibrous Dysplasia/McCune-Albright Syndrome: qHTS; gsp mutant cells, cAMP HTRF, 30 min; control for the full effect not named in the record; Potency, µM (series often up to 76.9 µM), inactives show top-dose activation (cAMP increase), usual class: activators; hit rate 0.13% among 340,000; AID 624287, 2012; active = well fitted activation curve with a large enough effect; inconclusive = small, poorly fitted or top-dose-only effect, or another doubt; inactive = no such curve, though single readings can be large or run the other way; cell line not stated here;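 further: phosphodiesterase inhibitor Ro 20-1724 added with compounds to block cAMP breakdown; potency means the concentration at half of the fitted maximal effect; nearly all actives have a fitted effect of over 60% in size; about a fifth of the inactives were tested at one dose only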
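Cells in DMEM/10% FBS with G418 were pretreated with compounds in DMSO plus […] (300 uM stock) for 30 min at 37C. cAMP was measured by HTRF (cAMP-d2 plus anti-cAMP antibody-K) after 30 min at room temperature.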
* marks the source's active call; other numbers are inactive results; ? = inconclusive; / = no result given; [ ] = remark or other dose.

SMILES | Menin MLL FP FL | Sfp PPTase inh | ClpP mod | D2 PAM | TRPV1 PAM | gsp antag | gsp ag
Cc1ccccc1OCC(=O)Nc1nnc(-c2ccco2)s1 | 3.7 | 12% | 0.4% | -4 | / | 9% | 14%[15.4 µM]
O=C(c1ccccc1)c1ccccc1NC(=O)C1CCCN1Cc1ccccc1 (stereo not given) | 0.5 | 5% | -1.9% | -17 | -5 | -22% | -10%
COc1ccccc1NC(=S)N1CCN(C(=O)c2ccco2)CC1 | 2.8 | -7% | -3.0% | -5 | 1 | 1% | 6%
CCOc1ccc(CN(C)C(=O)c2ccc(NS(=O)(=O)c3ccc4[nH]c(=O)[nH]c4c3)cc2)cc1 | / | / | -1.1% | -10 | 7 | 9% | 3%
CC(=O)c1cc(CN2CCN(Cc3ccc(C)cc3)C(CCO)C2)cs1 (stereo not given) | 1.2 | 3% | -1.6% | -14 | -1 | 9% | 8%
COC(=O)c1cccc(NC(=O)CSc2nnc(C)n2C)c1 | -4.1 | -1% | -2.4% | -21 | 7 | 1% | ?
O=C(Nc1ccc2oc(=O)ccc2c1)c1ccc2ccccc2c1 | 1.3 | -17% | / | 2 | 3 | ? | -5%[15.4 µM]
Cc1cccc(NC(=S)N(CCN2CCOCC2)Cc2cc3cc4c(cc3[nH]c2=O)OCCO4)c1 | 2.0 | 2% | 4.0% | 1 | -7 | -14% | 5%
CCOC(=O)C1=C(COC(=O)[C@@H]2CCCN2S(=O)(=O)c2ccc(C)cc2)NC(=O)NC1C (stereo not given in full) | / | -4% | 0.9% | -16 | 1 | -3% | 12%
COC(=O)C1CCN(C(=O)c2ccc(Cl)c(S(=O)(=O)NCc3ccco3)c2)CC1 | / | / | 3.0% | -9 | / | -3% | -42%[inhibitor]
COC(=O)CCn1[nH]c(=O)c2ccccc2c1=O | 4.2 | 2% | -0.5% | -10 | -2 | -16% | 5%[15.4 µM]
CCOC(=O)C1CCCN(C(=O)c2cncc(Br)c2)C1 (stereo not given) | 2.5 | 12% | -0.7% | 19 | 7 | -6% | 15%
O=C(c1ccccc1)N1CCN(CCc2ccccn2)CC1 | 0.4 | 8% | 0.9% | -9 | -6 | 8% | -28%[15.4 µM]
O=C(c1ccc(Cl)cc1)c1cnc2ccccn12 | 3.0 | -2% | -1.4% | -10 | -3 | 3% | 0%
CC(SC1=NCCS1)C(=O)Nc1nnc(-c2ccc(Cl)cc2)s1 (stereo not given) | -1.5 | 15% | ? | -3 | 8 | ? | -51%[inhibitor]
Cc1ccc(S(=O)(=O)N2CCC(C(=O)NCC3CCCO3)CC2)cc1 (stereo not given) | 3.4 | 22% | -1.9% | -11 | 4 | -2% | -11%
CCOC(=O)C1=C(C)N(Cc2ccccc2)C(=O)NC1c1ccccc1OS(=O)(=O)c1ccccc1[N+](=O)[O-] (stereo not given) | / | / | 2.2% | 2 | / | -1% | /
Cc1ccccc1NC(=O)N(C(C)C)C(C)C | 3.9 | 19% | -0.7% | 5 | -3 | 12% | -5%
O=C(COC(=O)CNC(=O)c1ccccc1F)Nc1ccc(Cl)cn1 | / | / | -3.8% | 6 | / | 0% | -2%[15.4 µM]
CCNC(=O)CN(C1CCCCC1)S(C)(=O)=O | 1.1 | 8% | -1.9% | -7 | 0 | -8% | -39%[inhibitor]
CCc1nnc(NC(=O)CSc2nnc(CNC(=O)c3ccc(OC)c(OC)c3)o2)s1 | -0.2 | -4% | -4.6% | -11 | -3 | 6% | 1%
O=C(C1CC1)N1CCN=C1SCc1ccc(Cl)cc1 | -1.0 | 9% | -1.9% | 1 | -2 | 3% | 1%[15.4 µM]
Cc1ccc(C)c(CSc2ncccc2C(=O)O)c1 | 1.6 | -1% | -1.8% | -6 | 0 | -12% | -17%
S=C(Nc1cc(Cl)cc(Cl)c1)N1CCN(c2ccccn2)CC1 | / | -1% | 2.0% | -21 | 7 | -5% | -42%
CC(C)c1ccc(NC(=O)c2cc(S(=O)(=O)N3CCCCC3)c[nH]2)cc1 | 0.9 | 19% | -19% | 2 | -19 | 17% | ?
Cc1nn(C(C)C(=O)NCCC2=CCCCC2)c(=O)c2nn(-c3ccccc3)c(C)c12 (stereo not given) | / | 4% | -2.7% | -16 | -9 | -11% | -3%
Cc1ccc(C(C(=O)NC2CCCCC2)N2CCC3(CC2)OCCO3)cc1 (stereo not given) | 2.5 | 12% | -0.7% | -34 | -3 | 9% | -29%
Cc1ccc2nc3n(c(=O)c2c1)-c1cc2ccccc2cc1C(=O)NC3CC(C)C (stereo not given) | / | / | 51% | 1 | / | / | -5%
Cc1c(N(C)C)nc2ccccc2c1N | 6.5 | -17% | -5.0% | -8 | -24 | -10% | -7%
CN(CC(=O)Nc1cccc(F)c1)CC(=O)Nc1ccc(Cl)cc1[N+](=O)[O-] | -7.5 | 2% | -0.8% | -5 | 4 | 0% | 1%
COc1ccc(C(OCC(O)CN(C)C2CCCCC2)c2ccc(OC)cc2)cc1 (stereo not given) | 0.1 | -5% | 1.8% | -13 | -1 | 9% | 1%[15.4 µM]
Clc1ccccc1Cc1noc(CN2CCCCC2c2ccccn2)n1 (stereo not given) | 3.4 | 21% | 0.4% | -1 | 3 | 14% | -17%
COc1cccc(N2CCN(c3ccc4nnc(CCC(=O)Nc5ccc(OC)c(OC)c5)n4n3)CC2)c1 | 0.1 | 0% | -13% | 8 | 21 | -8% | -9%
Clc1ccc(-c2nnc(CSc3nnc(-c4cccs4)o3)o2)cc1 | 1.6 | 7% | -2.6% | -5 | 0 | -8% | ?
O=C(NCC1CC1)c1ccc2c(c1)S(=O)(=O)c1cc(Cl)ccc1C2=O | / | / | -2.7% | 3 | -7 | -1% | -18%
CCOC(=O)c1c(S(=O)(=O)NCCc2ccco2)c(C)n(C)c1C | -2.8 | 19% | 0.5% | -5 | -4 | 9% | 39%
COc1ccc(CCNC(=O)CSc2nc3ccccc3c3nc(CCN4CCCCC4)nn23)cc1OC | -3.1 | 2% | -0.1% | -13 | -17 | 4% | -2%[15.4 µM]
CCCN1C2CCCC1CC(NC(=O)c1ccc(Br)cc1)C2 (stereo not given) | 1.2 | -7% | -4.3% | -15 | -2 | 7% | 10%[15.4 µM]
Cc1ccc(S(=O)(=O)N2CCC(C(=O)NNC(=O)c3cccnc3)CC2)cc1 | 3.0 | -23% | / | 3 | -3 | -7% | -12%[15.4 µM]
Cc1nc2ccc(S(=O)(=O)NCC(=O)N3CCN(c4ccccn4)CC3)cc2s1 | 3.7 | 18% | -7.5% | -3 | 8 | 5% | 0%
Cc1ccc(S(=O)(=O)N2CCN(CC(=O)N/N=C\c3ccc(Cl)c([N+](=O)[O-])c3)CC2)cc1 | 1.7 | -1% | -17% | -2 | -1 | ? | 3%
CC(=O)c1sc(N)c(C(=O)OC(C)C)c1C | 1.4 | 1% | 0.4% | -14 | -27 | 4% | 9%
CC(C)OCCCNC(=O)Cc1ccc(Br)cc1 | 1.3 | 17% | / | 2 | -3 | 8% | ?
O=C(CSc1nc(=O)n2cc(Cl)ccc2n1)NCCc1ccccc1 | / | / | -10% | 7 | 2 | 18% | 4%
COc1cc(OC)c(OC)cc1/C=C1\CC(C)C/C(=C\c2cc(OC)c(OC)cc2OC)C1=O (stereo not given) | ? | 45µM* | 0.2% | -6 | -5 | ? | -71%[inhibitor]
O=C(CS(=O)(=O)Cc1ccccc1)Nc1ccc(Cl)cn1 | -0.4 | -3% | -2.6% | -8 | -18 | 3% | -3%
Clc1cc(/C=N\NC2=NCCN2)cc(Cl)n1 | / | / | / | -12 | / | 2% | 0%[15.4 µM]
CCc1ccc(C(=O)Nc2cc(C)ccc2F)s1 | -3.0 | -6% | / | -4 | -6 | -16% | -6%
Cc1oc(-c2cccc(Cl)c2)nc1CN1CCCC(C(=O)NCc2ccco2)C1 (stereo not given) | -3.4 | 17% | -0.6% | -32 | -21 | 5% | 1%
CCOc1ccc(CNc2nnnn2C)cc1 | -1.5 | 8% | -0.5% | 12 | 4 | 11% | 6%
C[C@H]1CN([C@@H](C)CO)S(=O)(=O)c2ccc(C#Cc3ccccn3)cc2O[C@@H]1CN(C)C(=O)C1CC1 | / | / | -2.9% | 3 | / | / | -71%[inhibitor]
CCC1(c2ccc(F)cc2)NC(=O)N(CC(=O)NC2CC2)C1=O (stereo not given) | / | / | 1.4% | -11 | -36 | -2% | 7%
O=C(NNC(=O)c1ccc(NC(=O)c2ccccc2)cc1)Nc1ccccc1 | 2.1 | -3% | -22% | -3 | 8 | 3% | -3%
Cc1cccc(C2CC(c3ccccc3)Nc3nc(N)nn32)c1 (stereo not given) | 2.3 | 0% | -13% | -3 | 15 | -4% | ?
COc1ccc(-c2cc(C(F)(F)F)nc(SCC(=O)Nc3sc4c(c3C#N)CCC4)n2)cc1 | 4.4 | -3% | -28% | -2 | -5 | ? | -18%
C=CCN(C(=O)CNS(=O)(=O)c1ccccc1)C(C(=O)NCCOC)c1ccncc1 (stereo not given) | -1.7 | 4% | 1.2% | -26 | -6 | 3% | -4%

Structures listed above shown as hits in Sfp PPTase inh.
| structure | Menin MLL FP FL | Sfp PPTase inh | D2 PAM | gsp antag | gsp ag |
| --- | --- | --- | --- | --- | --- |
| COc1cc(OC)c(OC)cc1/C=C1\CC(C)C/C(=C\c2cc(OC)c(OC)cc2OC)C1=O (stereo not given) | ? | 45µM* | -6 | ? | -71%[inhibitor] |
